Screening results as filed in PubChem.
ID4 SMM – ID4 (human) binding | actives 1.2% (n = 31,000) | small molecule microarray, Flag-ID4 binding, fluorescence F/B | AID 624137 | calls only | P47928;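 active = spot signal over background at p below 0.07 in all four prints; compounds were printed on slides so no solution concentration is given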;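 also: a binder raises fluorescence above local background on the spot; about 2 pmol printed per array spot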
Target sequence (P47928 whole entry, looked up): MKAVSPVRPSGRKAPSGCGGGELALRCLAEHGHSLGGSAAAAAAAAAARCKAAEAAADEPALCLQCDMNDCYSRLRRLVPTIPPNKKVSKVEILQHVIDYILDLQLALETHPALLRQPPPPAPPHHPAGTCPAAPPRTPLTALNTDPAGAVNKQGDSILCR
Calls only; i = inactive; + = active, no number. An excerpt. The share of hits here may be higher or lower than overall.

SMILES	ID4 SMM
COc1cc2c(cc1OC)C(c1ccc(N)cc1)=NNC(=O)C2	i
CN(C)CC(=O)N[C@@H]1C=C[C@@H](CC(=O)NCc2ccccc2F)O[C@H]1CO	i
COc1ccc(NC(=O)c2c(NC(=O)Cc3ccc(OC)c(OC)c3)sc3c2CCC3)cc1	i
O=[N+]([O-])c1ccccc1/C=C/c1ccncc1	i
CN1CCN(c2ccccc2NC(=O)COc2ccc(Br)cc2)CC1	i
O=C(C[C@@H]1CC[C@H](NC(=O)c2cccc(F)c2)[C@H](CO)O1)NCc1ccccc1	i
COc1ccc(C(=O)Nc2sc3c(c2C(=O)Nc2cccc(OC)c2)CCC3)cc1	i
Cc1ccc2cccc(OCc3nnc(SCC(N)=O)n3C)c2n1	i
C[C@H](CO)N1C[C@H](C)[C@H](CN(C)Cc2ccccc2)Oc2cc(C#CCN(C)C)ccc2S1(=O)=O	i
C[C@@H]1CN([C@H](C)CO)C(=O)c2cc(C#CCN(C)C)cnc2O[C@@H]1CN(C)Cc1ccccc1	i
C[C@@H]1CN([C@@H](C)CO)C(=O)c2cc(/C=C/c3ccccc3)cnc2O[C@H]1CN(C)C(=O)C1CC1	i
O=C(CSc1nnc(-c2ccccc2Cl)n1-c1ccccc1)Nc1ccc(Br)cc1	i
C[C@H](NC(=O)C[C@@H]1C=C[C@@H](NC(=O)C2CCC2)[C@@H](CO)O1)c1ccccc1	i
C[C@H](CO)N1C[C@H](C)[C@@H](CN(C)C(=O)Cc2ccncc2)Oc2ncc(C#CCN(C)C)cc2C1=O	i
O=C(CCCN1C(=O)c2ccccc2C1=O)Nc1cccc(F)c1	i
Cc1ccc(N(CC(=O)NC2CCCC2)S(C)(=O)=O)cc1Cl	i
COC(=O)C[C@H]1C(C)(C)[C@@H](OC(C)=O)[C@@H]2CC3=C4CC(=O)O[C@@H](c5ccoc5)[C@]4(C)CCC3[C@@]1(C)C2=O (stereo partly drawn)	i
C[C@@H]1CN([C@@H](C)CO)C(=O)c2cc(-c3cccnc3)cnc2O[C@H]1CN(C)C(=O)Nc1ccc(C(F)(F)F)cc1	i
CO[C@@H]1CN(C)C(=O)c2cc(NC(=O)c3ccccc3)ccc2OC[C@@H](C)NC[C@H]1C	i
COc1ccc(Cl)cc1N(CC(=O)Nc1ccc(Br)c(Cl)c1)S(C)(=O)=O	i

Reformatted field by field: entries from further up
C[C@@H]1CN([C@@H](C)CO)C(=O)c2cc(/C=C/c3ccccc3)cnc2O[C@H]1CN(C)C(=O)C1CC1
  ID4 SMM = i
O=C(CSc1nnc(-c2ccccc2Cl)n1-c1ccccc1)Nc1ccc(Br)cc1
  ID4 SMM = i
C[C@H](NC(=O)C[C@@H]1C=C[C@@H](NC(=O)C2CCC2)[C@@H](CO)O1)c1ccccc1
  ID4 SMM = i

Going on with the list:
SMILES	ID4 SMM
CCN(CC(=O)Nc1cccc(F)c1)S(=O)(=O)c1ccc(C)cc1	i
COC(=O)c1cc(OC)c(OC)cc1NC(=O)C(C)Oc1cccc(Cl)c1 (stereo not drawn)	i
C[C@H](NC(=O)C[C@H]1CC[C@H](NC(=O)C2CCC2)[C@@H](CO)O1)c1ccccc1	i
COc1ccc(S(=O)(=O)N(C)CC(=O)O)cc1Cl	i
O=C(Cc1ccccc1)N[C@@H]1C=C[C@@H](CC(=O)N2CCCCC2)O[C@@H]1CO	i
O=C(CNS(=O)(=O)c1ccccc1)Nc1cccc(Cl)c1Cl	i
CC(=O)N(C)C[C@H]1Oc2ncc(C#Cc3ccccc3F)cc2C(=O)N([C@H](C)CO)C[C@H]1C	i
C[C@H](CO)N1C[C@H](C)[C@@H](CN(C)C(=O)CC2CC2)Oc2ncc(C#CCC3CCCC3)cc2C1=O	i
C[C@H]1CN([C@@H](C)CO)C(=O)c2cc(-c3cncnc3)cnc2O[C@@H]1CN(C)C(=O)CN1CCOCC1	i
C[C@@H]1CN([C@H](C)CO)S(=O)(=O)c2ccc(Br)cc2O[C@@H]1CN(C)CC1CC1	i
O=C(Cn1cncc1-c1ccc([N+](=O)[O-])cc1)Nc1ccccc1F	i
COc1ccc(OC)c(NC(=O)CSc2n[nH]c(-c3ccncc3)n2)c1	i
C[C@H]1CN([C@@H](C)CO)S(=O)(=O)c2ccc(-c3ccncc3)cc2O[C@H]1CN(C)C(=O)Nc1ccc(F)cc1	i
O=C(CCn1nc(-c2ccc(Cl)cc2)c2ccccc2c1=O)Nc1ccccc1	i
C[C@@H]1CN([C@H](C)CO)C(=O)c2cc(C#C[C@@H](C)O)cnc2O[C@H]1CN(C)CC1CCCCC1	i
C[C@@H]1CN([C@@H](C)CO)S(=O)(=O)c2ccc(Br)cc2O[C@@H]1CN(C)C(=O)C1CCCCC1	i
Cn1c(SCc2nc(-c3cccs3)no2)nnc1-c1ccco1	+
COc1ccc(Cl)cc1NC(=O)CN(C)S(=O)(=O)c1ccc2ccccc2c1	i
Cc1c(NC(=O)CN(c2ccc(F)c(Cl)c2)S(C)(=O)=O)cccc1[N+](=O)[O-]	i
O=C(COc1ccc([N+](=O)[O-])cc1)Nc1ccc2oc(-c3cccc(F)c3)nc2c1	i
CCn1c(SCC(=O)Nc2ccc(F)c(F)c2)nnc1-c1ccncc1	i
O=C(C[C@H]1C=C[C@H](NC(=O)C2CC2)[C@H](CO)O1)Nc1ccccc1	i
CC(C)C#Cc1ccc2c(c1)O[C@@H](CN(C)Cc1ccccc1)[C@@H](C)CN([C@H](C)CO)S2(=O)=O	i
COc1ccccc1C(=O)NC1(C(F)(F)F)C(=O)N(Cc2ccco2)C2=C1C(=O)CC(C)(C)C2 (stereo not drawn)	i
CCCC#Cc1ccc2c(c1)O[C@H](CN(C)CC1CCOCC1)[C@H](C)CN([C@@H](C)CO)S2(=O)=O	i
CNC[C@@H]1Oc2cc(Br)ccc2S(=O)(=O)N([C@@H](C)CO)C[C@@H]1C	i
CCC(=O)N(C)C[C@H]1Oc2ncc(C#CC(C)C)cc2C(=O)N([C@H](C)CO)C[C@@H]1C	i
C[C@H]1CN([C@@H](C)CO)C(=O)c2cc(C#CC3(O)CCCC3)cnc2O[C@H]1CN(C)Cc1ccccc1	i
COc1ccc(C(=O)CSc2nc3sc(C)c(C)c3c(=O)[nH]2)cc1C	i
CO[C@@H](CN(C)C(=O)Nc1ccc(C(F)(F)F)cc1)[C@H](C)CN(Cc1ccccc1Cl)[C@@H](C)CO	i
CC(=O)Nc1ccc(NC(=O)CN(c2cccc(C(F)(F)F)c2)S(C)(=O)=O)cc1	i
C[C@H]1CN([C@@H](C)CO)C(=O)c2cc(C#CCN(C)C)cnc2O[C@@H]1CN(C)C	i
N#CC(C(=Nc1ccccc1)SCc1ccc(Cl)cc1)c1nc2ccccc2[nH]1 (stereo not drawn)	i
COc1cc([C@H]2OC[C@H]3[C@@H]2CO[C@@H]3c2ccc(O)c(OC)c2)ccc1O	i
O=C(CN1C(=O)c2ccccc2S1(=O)=O)Nc1cc(C(F)(F)F)ccc1Cl	i
Cc1ccc(S(=O)(=O)N(C)CC(=O)Nc2ccccc2Sc2ccccc2)cc1	i
Cc1cccc(C)c1OCC(=O)Nc1sc(C)c(C)c1C(N)=O	i
O=C(C[C@H]1CC[C@@H](NC(=O)Nc2cc(F)ccc2F)[C@@H](CO)O1)NCc1ccncn1	i
Cn1c(SCC(=O)Nc2ccc(C(=O)O)cc2)nnc1-c1ccc(Cl)cc1Cl	i
COC(=O)c1ccccc1NC(=O)CN(c1ccc(C)c(Cl)c1)S(C)(=O)=O	i

Fetched by structure from the list above:
SMILES	ID4 SMM
Cc1cccc(C)c1OCC(=O)Nc1sc(C)c(C)c1C(N)=O	i
N#CC(C(=Nc1ccccc1)SCc1ccc(Cl)cc1)c1nc2ccccc2[nH]1 (stereo not drawn)	i
O=C(C[C@H]1CC[C@@H](NC(=O)Nc2cc(F)ccc2F)[C@@H](CO)O1)NCc1ccncn1	i
Cn1c(SCC(=O)Nc2ccc(C(=O)O)cc2)nnc1-c1ccc(Cl)cc1Cl	i
COc1cc([C@H]2OC[C@H]3[C@@H]2CO[C@@H]3c2ccc(O)c(OC)c2)ccc1O	i

Following part.
SMILES	ID4 SMM
C[C@@H]1CN([C@H](C)CO)C(=O)c2cc(/C=C/c3ccccc3)cnc2O[C@@H]1CN(C)Cc1ccccc1	i
O=C(Cn1cnc([N+](=O)[O-])n1)Nc1ccc(Cl)cc1C(F)(F)F	i
O=C(NCCNC(=O)c1ccco1)c1ccco1	i
CC(Oc1cccc(Cl)c1)C(=O)NCc1ccco1 (stereo not drawn)	i
C[C@H](CO)N1C[C@H](C)[C@H](CN(C)Cc2ccccc2)Oc2ncc(C3=CCCC3)cc2C1=O	i
O=C(CSc1nc2ccccc2c(=O)[nH]1)Nc1ccc2ccccc2c1	i
C[C@@H]1CN([C@H](C)CO)C(=O)c2cc(C#CCN(C)C)cnc2O[C@H]1CN(C)Cc1ccncc1	i
O=C(C[C@H]1C[C@H]2c3cc(NS(=O)(=O)c4ccc(F)cc4)ccc3O[C@H]2[C@H](CO)O1)N1CCOCC1	i
Cc1ccc(Nc2nc(Oc3ccc(OCc4ccccc4)nn3)nc(N(C)C)n2)cc1	i
C[C@@H]1CN([C@@H](C)CO)C(=O)c2cc(C#CCc3ccccc3)cnc2O[C@H]1CN(C)Cc1cccnc1	i

Some of these compounds in order of number of heavy atoms, high to low:
SMILES	ID4 SMM
O=C(Cn1cnc([N+](=O)[O-])n1)Nc1ccc(Cl)cc1C(F)(F)F	i
CC(Oc1cccc(Cl)c1)C(=O)NCc1ccco1 (stereo not drawn)	i
O=C(NCCNC(=O)c1ccco1)c1ccco1	i

More results:
SMILES	ID4 SMM
CCOC(=O)C1CCCCN1Cc1ccc(OC)c(O)c1 (stereo not drawn)	i
C/C=C/c1ccc2c(c1)O[C@@H](CN(C)CC1CCCCC1)[C@@H](C)CN([C@@H](C)CO)S2(=O)=O	i
COc1ccc(-n2c(SCC(=O)Nc3ccc(Cl)cc3C)nnc2-c2ccccc2F)cc1	i
COc1ccc(S(=O)(=O)N[C@H]2C=C[C@H](CC(=O)N3CCc4ccccc4C3)O[C@H]2CO)cc1	i
CS(=O)(=O)N(CC(=O)NC1CCCCC1)c1cccc(F)c1	i
Nc1ncnc2nc(SCC(=O)N3CCN(c4ccccc4)CC3)[nH]c12	i
COc1ccc(Cc2nnc(SCc3nc4ccccc4c(=O)[nH]3)n2C)cc1	i
Cc1cccc(OCC(=O)Nc2c[nH]c(=O)[nH]c2=O)c1C	i
Cc1n[nH]c(C)c1C(=O)CC1(O)C(=O)N(Cc2ccccc2)c2ccccc21 (stereo not drawn)	i
C[C@H](NC(=O)C[C@H]1CC[C@@H](NC(=O)C2CC2)[C@@H](CO)O1)c1ccccc1	i
COc1cccc(CNC(=O)C[C@@H]2C=C[C@H](NC(C)=O)[C@@H](CO)O2)c1	i
NS(=O)(=O)c1ccc(NC(=S)Nc2nn(Cc3ccc(Cl)cc3Cl)cc2Cl)cc1	i
O=C(C[C@@H]1CC[C@@H](NC(=O)NC2CCCCC2)[C@@H](CO)O1)NCc1ccccc1	i
COc1cc(OC)cc(-c2nnc(SCC(=O)Nc3ccc(Cl)cc3)n2-c2ccc(F)cc2)c1	i
Cc1ccc(-c2nnc(N3CCN(C(=O)CSc4nc5ccccc5o4)CC3)c3ccccc23)cc1	i
COc1cc2nc(COc3ccccc3[N+](=O)[O-])oc(=O)c2cc1OC	i
O=C(CSc1ncn[nH]1)c1ccc2c(c1)OCCO2	i
C/C=C/c1cnc2c(c1)C(=O)N([C@H](C)CO)C[C@H](C)[C@H](CN(C)C(=O)Nc1c(C)noc1C)O2	i
C[C@H](CO)N1C[C@H](C)[C@H](CN(C)C(=O)C2CCCCC2)Oc2ncc(-c3cccnc3)cc2C1=O	i
CCCC#Cc1cnc2c(c1)C(=O)N([C@@H](C)CO)C[C@@H](C)[C@H](CN(C)C(=O)C1CCCCC1)O2	i
Cc1cccc(-c2nc3cc(NC(=O)COc4ccc([N+](=O)[O-])cc4)ccc3o2)c1	i
COc1ccc(NC(=O)C(C)N(c2ccc(Cl)cc2)S(C)(=O)=O)c(OC)c1 (stereo not drawn)	i
CCc1cccc(C)c1NC(=O)CSc1nnc(-c2ccc(Cl)cc2Cl)n1C	i
CN(CC(=O)Nc1ccc(Cl)cc1C(F)(F)F)S(=O)(=O)c1ccc(Br)cc1	i
C[C@@H]1CN([C@@H](C)CO)C(=O)c2ccccc2-c2ccccc2CO[C@@H]1CN(C)Cc1cccc(O)c1	i
CCCN(C)C[C@@H]1Oc2cc(C#CCN(C)C)ccc2S(=O)(=O)N([C@@H](C)CO)C[C@@H]1C	i
C/C=C/c1cnc2c(c1)C(=O)N([C@@H](C)CO)C[C@H](C)[C@@H](CN(C)Cc1ccc(F)cc1)O2	i
Cc1ccc(NC(=O)CSc2nnc(-c3ccc(Br)cc3)o2)cc1Cl	i
Cc1ccc(C(=O)O)cc1S(=O)(=O)NCCCO	i
CC(C)(C)c1ccc(S(=O)(=O)CC(O)CSc2nc3c(cc2C#N)CCCC3)cc1 (stereo not drawn)	i
C[C@H](CO)N1C[C@H](C)[C@@H](CN(C)C(=O)C2CC2)Oc2ncc(Br)cc2C1=O	i
Cc1c(NC(=O)COc2cc(Cl)c(Cl)cc2Cl)cccc1-c1nc2ccccc2o1	i
CCC1(CC)C(=O)N(CC(=O)OC)C(=O)N(C)C1=S	i
COc1ccc(N(C(=O)c2cccnc2)S(=O)(=O)c2cccc([N+](=O)[O-])c2)cc1	i
COc1ccc(NC(=O)C(C)N(c2ccc(Cl)cc2)S(C)(=O)=O)cc1OC (stereo not drawn)	i
CCOC(=O)c1c(NC(=O)Cn2cnc3sc(-c4ccccc4)cc3c2=O)sc2c1CCCC2	i
CSc1cccc(NC(=O)CSc2nnnn2-c2ccccc2)c1	i
C[C@H](CO)N1C[C@H](C)[C@H](CN(C)C)Oc2c(NC(=O)C3CC3)cccc2C1=O	i
Cc1ccccc1CN(C)C[C@H]1OCc2cn(nn2)CCCC(=O)N([C@@H](C)CO)C[C@@H]1C	i
O=C(Nc1cccc(C(F)(F)F)c1)Nc1cccc(S(=O)(=O)N2CCOCC2)c1	i
CCN(CC(=O)Nc1cccc(C(C)=O)c1)S(=O)(=O)c1ccc(C)cc1	i
